PINK1 modulator: A Quantitative High throughput Screen to Identify Chemical Modulators of PINK1 Expression; PINK1 immunofluorescence, high-content cytometry, 24 h; Potency, µM (titrated, usually from 76.6 µM), for the others: at the top dose activation (PINK1 increase), hits mostly activators; 0.2% of 410,000 active; AID 624263, 2012; active = well fitted activation curve with a large enough effect; inconclusive = small, poorly fitted or top-dose-only effect; inactive = flat fitted curve, though single readings scatter; cell line not stated here;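 further: % of control where 0% means no effect; nearly all actives have a fitted effect of over 65% in size; a mitochondrial uncoupler was the plate control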
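PINK1 protein, normally rapidly degraded, was detected by immunofluorescence after 24 hour compound treatment of a stable cell line. Titration data (5 concentrations) came from laser-scanning cytometry, with CCCP-treated wells as controls.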
ClpP mod: qHTS Assay for Activators of ClpP; Potency, µM (top dose mostly 57.5 µM), for the others: at the top dose activity change, negative = active; ATP-dependent Clp protease proteolytic subunit (Bacillus subtilis (strain 168)), P80244; 1.9% of 340,000 active; purified B. subtilis ClpP, FRET peptide cleavage, 20 min; active = well fitted falling curve with a large enough effect; inconclusive = small, poorly fitted or top-dose-only effect; inactive = no such curve, though single readings can be large or run the other way; further: the source files actives as falling curves though it sought activators and does not explain the sign; nearly all actives have a fitted effect of over 65% in size; many hits overshoot -100%
Target sequence (P80244 whole entry, looked up): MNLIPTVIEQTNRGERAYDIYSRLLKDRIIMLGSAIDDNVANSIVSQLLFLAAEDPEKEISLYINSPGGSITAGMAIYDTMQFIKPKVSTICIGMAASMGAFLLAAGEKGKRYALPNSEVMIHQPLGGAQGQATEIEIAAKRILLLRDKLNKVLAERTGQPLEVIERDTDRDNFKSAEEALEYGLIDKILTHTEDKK
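Buffer: 100 mM Tris/HCl pH8, 100 mM KCl, 0.05% low protease BSA, 2.5% glycerol, 0.01% Tween-20. ClpP 10 microg/mL final; 20 min RT; delta FRET normalized to ADEP and DMSO controls.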
Active calls of the source: *; ? = inconclusive. Potency means the concentration at half of the fitted maximal effect. These rows are one share of the data, so the mix of outcomes need not match the whole.

Values in the order: ClpP mod | PINK1 modulator
1	CN(C)c1ccc(CNC(=O)CN2CCSc3ccc(S(=O)(=O)N(C)C)cc32)cc1
→ ? | 0.1%
2	CC(C)Oc1ccc(CNC(=O)CCn2c(=O)c3cccn3c3ccc(F)cc32)cc1
→ -10% | 0.0%
3	Cc1ccc(NC(=O)[C@H]2O[C@@H]3OC(C)(C)O[C@@H]3[C@H]3OC(C)(C)O[C@H]32)cc1F
→ -1.7% | -0.1%
4	Cc1nn(-c2ccc(N3CCOCC3)nn2)c(C)c1CCC(=O)NCc1ccc(OC(C)C)cc1
→ -4.5% | 2.2%
5	CC(C)(C)c1ccc(/C=C/C(=O)Nc2ccc(S(N)(=O)=O)cc2)cc1
→ -11% | 0.4%
6	Cc1oc(-c2ccccc2)nc1CSc1nnc(C)n2c1cc1sccc12
→ -18% | 0.5%
7	O=C(Cn1c(-c2cccs2)cc2cc(Cl)ccc21)N1CCN(c2ccccc2)CC1
→ 25µM* | 2.6%
8	Cc1oc2ncn(CC(C)C)c(=O)c2c1C(=O)NC(C)c1ccccc1 (stereo not given)
→ ? | 1.6%
9	COc1ccccc1Nc1ncc2c(n1)CCN(Cc1cc(F)cc(F)c1)C2
→ -12% | 1.6%
10	CC(C)NC(=O)C1(C#N)C=C1c1ccccc1 (stereo not given)
→ -2.3% | 0.7%

Excerpt, compounds 8 to 10
Values in the order: ClpP mod | PINK1 modulator
8	Cc1oc2ncn(CC(C)C)c(=O)c2c1C(=O)NC(C)c1ccccc1 (stereo not given)
→ ? | 1.6%
9	COc1ccccc1Nc1ncc2c(n1)CCN(Cc1cc(F)cc(F)c1)C2
→ -12% | 1.6%
10	CC(C)NC(=O)C1(C#N)C=C1c1ccccc1 (stereo not given)
→ -2.3% | 0.7%

The list goes on.
Values in the order: ClpP mod | PINK1 modulator
11	COc1ccccc1C(=O)OCC(=O)Nc1ccc(N2CCCCC2)cc1
→ 2.3% | -0.7%
12	CCN(CC)S(=O)(=O)c1ccc2c(c1)N(CC(=O)Nc1ccc(OC)cc1)C(=O)CS2
→ 0.3% | -1.9%
13	COc1ccc(CN(C(=O)c2ccccc2F)C2CCS(=O)(=O)C2)cc1 (stereo not given)
→ -11% | 0.4%
14	COc1cccc(N2CCN(C(=O)c3ccc4c(Cl)c5c(nc4c3)CCCC5)CC2)c1
→ -2.0% | 1.7%
15	CC(=O)N1CCc2c(sc3c2c(=O)n(CCc2ccccc2)c(=O)n3Cc2ccc(F)cc2)C1
→ -3.5% | 0.1%
16	COc1ccc(C(=O)CSc2nc(C)cc(C)c2C(=O)Nc2ccccc2C)cc1
→ 2.6% | -0.6%
17	COc1cccc(CNC(=O)C(C)n2ncn3cccc3c2=O)c1OC (stereo not given)
→ -2.1% | -0.7%
18	CCCSc1ncc(Cl)c(C(=O)Nc2ccc(OC)cc2OC)n1
→ -3.4% | 1.6%
19	CCCCSc1nc2sc3c(c2c(=O)n1-c1ccccc1C)CC(C)(C)OC3
→ -12% | 1.4%
20	CCCn1c2ccccc2c2cnn(CC(=O)NCCCOC(C)C)c(=O)c21
→ 4.4% | -16%
21	Cc1ccc(CNC(=O)c2cc3sccc3n2Cc2ccc(F)cc2)cc1
→ ? | 12%
22	CSc1nc(Nc2ccc(C)cc2)c(C#N)c(-c2ccccc2)n1
→ -4.6% | -1.5%
23	CC(C)Oc1ccc(CNC(=O)C2CCN(C(=O)N3CCOc4ccc(Cl)cc43)CC2)cc1
→ -3.3% | 0.4%
24	CC(NC(=O)C1=Cc2ccccc2OC1)c1ccccc1 (stereo not given)
→ -2.0% | 1.8%
25	CCn1c(=O)n(CC)c2cc(N3CCCCC3)c(NC(=O)Nc3cc(Cl)ccc3OC)cc21
→ 28µM* | -0.2%
26	CCC(C(=O)NCCCN(CC)CC)n1ncn2c(cc3occc32)c1=O (stereo not given)
→ -4.3% | -0.5%
27	COc1ccc(S(=O)(=O)Nc2cccc(-c3ccc(N4CCC(C)CC4)nn3)c2)cc1OC
→ -4.6% | 2.0%
28	O=C(Nc1ccc(F)c(Cl)c1)N1CCN2CCCCC2C1 (stereo not given)
→ -1.2% | -0.7%
29	O=C(COCc1cc(-c2cccs2)on1)N1CCN(c2ccc(F)cc2)CC1
→ 0.1% | 0.4%
30	COc1cc(C(=O)NCCc2sc(-c3ccc(C)cc3)nc2C)cc(OC)c1OC
→ 4.2% | -1.3%
31	CCOc1cc(C(=O)Nc2ccc3nc(N4CCN(C)CC4)cc(C)c3c2)cc(OCC)c1OCC
→ 4.1% | ?
32	COc1ccccc1-c1noc(CSc2nc3ccc(C)cc3[nH]2)n1
→ -1.8% | 0.4%
33	Cc1ccc(NC(=O)CCC(=O)N2Cc3ccccc3Oc3ncccc32)cc1
→ -0.8% | -0.8%
34	COc1ccc(-c2onc(C)c2C)cc1S(=O)(=O)NCc1ccc(C)o1
→ -1.9% | 1.2%
35	CCc1ccc(S(=O)(=O)c2nnn3c2nc(NCCC(C)C)c2cc(Cl)ccc23)cc1
→ 4.2% | -0.9%
36	COc1ccc(CN2C(=O)C(NC(=O)c3ccc(C)cc3)(C(F)(F)F)N=C2c2ccccc2)cc1 (stereo not given)
→ -1.0% | -0.9%
37	CCCCc1c(C)nc2c(-c3ccc(OC)cc3)c(C)[nH]n2c1=O
→ -3.9% | -0.4%
38	COCCN(Cc1cccs1)S(=O)(=O)c1cc(-c2cc(C)no2)ccc1C
→ -0.9% | 1.3%
39	Cc1nc2ccccc2n1CCc1nc2c3ccccc3nc(SCC(=O)Nc3ccc(C(C)C)cc3)n2n1
→ -5.7% | 3.6%
40	CC1(C)C2CCC1(C)C(NC(=O)COC(=O)c1ccc(S(C)(=O)=O)c([N+](=O)[O-])c1)C2 (stereo not given)
→ -0.2% | -1.2%
41	CC(NC(=O)c1ccc(CSc2nc3ccncc3n2Cc2ccc(F)cc2)cc1)c1ccccc1 (stereo not given)
→ -11% | 0.1%
42	O=C(Cn1cc(SCc2ccccc2F)c2ccccc21)N1CCCC1
→ 0.3% | 2.3%
43	CCn1c(CNC(=O)c2ccc(OC)cc2)nnc1SCC(=O)Nc1ccc(C)cc1
→ -4.7% | 2.4%
44	O=C(CNC(=O)C1CCCCC1)OCCOc1ccccc1
→ -1.3% | 0.5%
45	CCCCOc1ccc(C2=NC(c3ccncc3)=Nc3ccc(OCC)cc3N2)cc1
→ 0.1% | 3.7%
46	CCc1ccccc1NS(=O)(=O)c1ccc2c(c1)CC(=O)N2
→ 4.0% | 0.4%
47	COc1ccccc1-c1nnc(C2CCN(S(=O)(=O)c3ccccc3)CC2)o1
→ -7.3% | 0.5%
48	COc1ccc(C)cc1NC(=O)Nc1cccc(OCc2cc(=O)n3ccc(C)cc3n2)c1
→ -13% | 1.2%
49	COc1ccc(N2C(=O)CSC23C(=O)N(CC(=O)NC2CCCCC2)c2ccccc23)cc1 (stereo not given)
→ 1.0% | 3.7%
50	Cc1ccc(NC(=O)c2nc(SCc3ccccc3F)ncc2Cl)cc1
→ 9.5% | 0.6%
51	COCCNC(=O)C(=O)NCC(c1cccnc1)N1CCN(c2ccccc2F)CC1 (stereo not given)
→ -1.5% | 4.1%
52	CCCCCn1c(CCCNC(=O)c2ccc(Cl)cc2)nc2ccccc21
→ 1.2% | 4.1%
53	COCCn1c(CCC(=O)Nc2ccc(C)c(Cl)c2)nc2cccnc21
→ 0.9% | 4.3%
54	Cc1cccc(NC(=O)Cn2c(=O)n(Cc3nc(-c4ccccc4)no3)c(=O)c3ccccc32)c1
→ ? | 7.3%
55	COc1ccccc1NC(=O)N1c2ccccc2Sc2ccccc21
→ ? | 0.4%
56	O=c1oc2ccc(Br)cc2cc1-c1nc2c(s1)CCc1ccccc1-2
→ 3.2% | 4.5%
57	COC(=O)COc1ccc(-c2nnc(Nc3ccc(O)cc3)c3ccccc23)cc1
→ 2.3% | -1.7%
58	O=C(Cn1ncc2c3ccccc3n(Cc3ccccc3)c2c1=O)NCCc1ccc(Cl)cc1
→ 4.2% | 9.8%
59	COc1cccc(NC(=O)c2oc3ccccc3c2NC(=O)C2CCCCC2)c1
→ ? | -1.0%
60	Cc1ccc(C)c(Nc2nn3c(=O)c4ccc(C(=O)NC5CCCCC5)cc4nc3s2)c1
→ 3.6% | -4.1%

(further entries)
Values in the order: ClpP mod | PINK1 modulator
61	Cc1ccc(-n2nc(C)c3nc(CCC(=O)Nc4cccc(F)c4)c(=O)n(C)c32)cc1
→ -0.5% | -0.3%
62	CCOC(=O)c1c(Nc2cccc(C)c2)nnc(-c2ccccc2)c1-c1ccccc1
→ -4.2% | -2.4%
63	CCC(CC)C(=O)Nc1cc(-c2nc3cccnc3s2)ccc1C
→ -15% | 2.0%
64	COc1ccc(N(Cc2cccs2)C(=O)COc2cccc(C)c2C)cc1
→ 0.0% | ?
65	CC(C)Cc1cc(C(=O)NCc2ccc(Cl)cc2)no1
→ 0.7% | 5.6%
66	COc1ccc(NC(=O)CSc2nc3nc(C)c(Cc4ccccc4)c(C)n3n2)cc1OC
→ -5.6% | 2.1%
67	Cc1ccc(CNC(=O)c2ccc3c(c2)nc(C)n3-c2cccc(F)c2)cc1
→ 0.4% | -0.8%
68	CCOc1ccc(CNC(=O)C2CCN(c3nc4ccccc4nc3C(F)(F)F)CC2)cc1OC
→ 1.1% | -0.2%
69	Cc1ccccc1CNC(=O)Cn1c(C)c2cnn(-c3ccccc3)c(=O)c2c1C
→ -1.2% | 0.9%
70	COc1ccccc1CNC(=O)Cn1c(=O)oc2cc(S(=O)(=O)N3CCC(C)CC3)ccc21
→ -7.3% | 4.4%
71	COc1ccc(NC(=O)c2cc(-c3ccc(F)cc3)no2)cc1OC
→ -0.1% | 0.0%
72	O=C(CN1CCN(Cc2ccc(F)cc2)C1=O)NCc1ccccc1
→ 0.0% | -0.2%
73	CCN1CCN(C(=O)c2ccc3c(c2)N(Cc2cccc(Cl)c2)C(=O)c2ccccc2S3(=O)=O)CC1
→ 0.8% | 1.6%
74	O=C(CSc1nnc(-c2ccc3c(c2)OCO3)o1)Oc1ccccc1
→ -3.6% | 1.0%
75	CCN(CC)CCNC(=O)C(=O)NCC(c1cccnc1)N1CCN(c2ccc(F)cc2)CC1 (stereo not given)
→ -1.0% | -0.9%
76	Cc1ccc(Cl)cc1N1CCN(C(=O)c2cc(S(=O)(=O)N3CCCC3)c[nH]2)CC1
→ -1.7% | 2.1%
77	O=C(NC1CCCCC1)c1ccc2c(c1)N(Cc1cccc(F)c1)C(=O)c1ccccc1S2
→ -3.1% | 0.7%
78	O=C(Cn1cnc2nc3c(cc2c1=O)CCCC3)N1CCN(c2ccccc2)CC1
→ -6.9% | 0.9%
79	Cc1cc(C)c2oc(C(=O)Nc3c(C(=O)Nc4ccccc4)oc4ccccc34)cc(=O)c2c1
→ -3.6% | 1.7%
80	Cc1cccc(C(=O)Nc2c(-c3ccc(F)cc3)nc3ccccn23)c1
→ -3.3% | -1.0%
81	CC(=O)C1=C(OC(=O)C(C)C)c2ccccc2S(=O)(=O)N1Cc1ccccc1
→ 0.7% | -1.5%
82	O=C(O)CCn1ccc2cc(S(=O)(=O)N3CCCCC3)ccc21
→ -16% | 0.2%
83	COc1ccc(CCNC(=O)Cc2c(C)c3c(cc(C)c4c(C)c(C)oc43)oc2=O)cc1
→ ? | -0.4%
84	CCOc1ccc(NC(=O)CSc2ncc3c(n2)-c2ccccc2N(Cc2ccccc2C)S3(=O)=O)cc1
→ -0.7% | 1.0%
85	COc1ccc(C(=O)Nc2ccc(NC(=O)c3cccs3)cc2)cc1OC
→ 4.0% | 1.4%
86	COC(=O)c1c(NC(=O)CCCOc2ccc(C(C)(C)C)cc2)sc2c1CCC(C)C2 (stereo not given)
→ -6.0% | -0.9%
87	Cc1cc(NC(=O)CCc2nc3cccnc3n2Cc2cccs2)ccc1Br
→ -7.8% | 3.8%
88	CCCCNc1c(-c2cc3ccccc3o2)nc2nc(C)cc(C)n12
→ -10.0% | 15%
89	COc1ccc(CNCc2c(C(=O)O)n(Cc3ccc(F)cc3)c3cc(C)ccc23)cc1OC
→ -1.2% | -0.8%
90	O=C(NCCc1nc2ccccc2n1CCCOc1ccc(Cl)cc1)C1CCCCC1
→ -5.2% | 21%

Of the compounds above, 2 contain a tert-butyl group:
Values in the order: ClpP mod | PINK1 modulator
5	CC(C)(C)c1ccc(/C=C/C(=O)Nc2ccc(S(N)(=O)=O)cc2)cc1
→ -11% | 0.4%
86	COC(=O)c1c(NC(=O)CCCOc2ccc(C(C)(C)C)cc2)sc2c1CCC(C)C2 (stereo not given)
→ -6.0% | -0.9%

Next section.
Values in the order: ClpP mod | PINK1 modulator
91	CCc1ccc(NC(=O)CN(C)S(=O)(=O)c2ccc3c(c2)c(=O)n(C)c(=O)n3C)cc1
→ -13% | 0.9%
92	COc1ccc(-c2onc(C)c2C)cc1S(=O)(=O)N1CCC(C)CC1
→ -3.5% | 0.7%
93	COc1cc(/C=C2\C=Cc3ccccc32)cc(OC)c1OC
→ 0.0% | 0.1%
94	CCCC12CN3CC(CCC)(CN(C1)C3c1ccc(OCc3ccccc3)cc1)C2=O (stereo not given)
→ 1.9% | 3.7%
95	CC(=O)Nc1c(C)nn(-c2ccccc2)c1N1CCC(C(=O)NCc2cccc(F)c2)CC1
→ -2.5% | -0.2%
96	O=C1NC[C@H](CCCCN2CCN(CCC3CCCCC3)C(=O)C2=O)N(CCc2ccc(O)cc2)C1=O
→ 3.7% | -0.3%
97	CCN(C(=O)C(NS(=O)(=O)c1cccc2nsnc12)c1ccccc1)c1ccccc1 (stereo not given)
→ -0.2% | 0.8%
